BasE inh: blocks the Acinetobacter baumannii siderophore enzyme BasE | 84,000 compounds, 0.1% hits | inhibition, % (test concentration not listed) | purified BasE, fluorescence polarization binding displacement;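 active means both replicates above 25% with normal brightness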;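 further: 0% = negative plate control signal and 100% = positive plate control signal; stock transfer was 100 nL into about 30 µL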
LANA-nucl inh: inhibitors of KSHV LANA binding to nucleosomes. 51,000 compounds, 0.3% hits. z-score (no concentration beside the values). FITC-LANA1-23 / chicken nucleosome fluorescence polarization; hits give low values. AID 720717;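 active means both repeat wells score below -2 in polarization z-score versus plate sample wells, excluding overly bright wells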;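 further: 100 nL library stock added to about 30 µL; numbers are from one replicate; some results filed as inactive read as strong as hits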
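Assay system: FITC-LANA peptide and chicken nucleosomes; input: 240 nM purified chicken nucleosomes (480 nM peptide binding sites), final; also added: 50 nM FITC-LANA1-23 probe; medium: TEN-BT buffer, pH 7.5; doses: pin-transferred compound, 100 nL; times: 10–45 min, room temperature; technique: fluorescence polarization; replication: duplicates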
Active calls of the source: *; x = not tested or not shown; & = joins results of further samples. Some of the compounds tested (hit frequency here may not be typical).

SMILES	BasE inh	LANA-nucl inh
CCOC(=O)c1c(-c2ccccc2)n2c3c(cccc13)SCC2	0.9	1
COC(=O)CNC(=O)c1cc(=O)c2ccccc2o1	1.6	x
CCOc1ccccc1OCC(=O)OC1CCOC1=O (stereo not given)	0.5	x
Cc1noc2ncnc(N3CCCC(C(=O)NCCCN4CCCC4=O)C3)c12 (stereo not given)	-0.5	x
COC(=O)C1(C(F)(F)F)C2C=CC(C2)N1S(=O)(=O)c1ccccc1 (stereo not given)	0.1	0.92
O=C(NCc1cccn1Cc1ccccc1)Nc1ccccc1	2.1	0.011
O=C(Nc1cccc(C(F)(F)F)c1)c1cc2ccccc2o1	1.0	0.98
CCCC(=O)NCc1cc(-c2nn(C)c(=O)c3ccccc23)ccc1C	-0.2	0.25
CCN(C(=O)CN(C)C1CCCCC1)c1c(N)n(Cc2ccccc2)c(=O)[nH]c1=O	-1.9	x
CCOc1ccc(-c2nnc3ccc(SCC(N)=O)nn23)cc1	-1.4	0.42
CN1C(=O)SC(Cc2ccc(N)cc2)C1=O (stereo not given)	x	-0.13
COc1cccc(C(=O)Nc2cccc(C)c2)c1	-2.4	0.7
CC(=O)Oc1ccc2oc(=O)sc2c1	-0.7	-0.35
O=C(Cn1cc(C(F)(F)F)ccc1=O)N1CCN(S(=O)(=O)c2ccc(Cl)cc2)CC1	-0.1	x
COc1ccc(-c2nnc(SC(C(=O)NC(N)=O)c3ccccc3)n2CC2CCCO2)cc1 (stereo not given)	1.3	x
C=CCN1C(c2ccc(C)cc2)=CS/C1=C(\C#N)C(=O)OCC	-1.1	0.35
Cc1ccc(C2CC(c3cccs3)=NN2C(=O)CSc2nnc(CNC(=O)c3ccco3)n2-c2ccccc2)cc1 (stereo not given)	-4.1	-0.26
O=C1CC(c2cccc(O)c2)C2=C(CC(c3cccs3)CC2=O)N1 (stereo not given)	10	-0.19
Cc1nc(CCn2cnc3cc(C)c(C)cc32)no1	-2.3	-0.87
O=C(COc1ccccc1OC(=O)c1ccc(Cl)cc1)NCc1ccccc1Cl	8.7	x
CCOC(=O)C1=C(CSc2nnc(C)s2)NC(=O)NC1c1ccccc1OC (stereo not given)	1.7	-0.64
Cc1nc2sccn2c1Br	3.9	-0.36
CCOc1ccc(-c2cnc(SCC)nc2N)cc1	-1.1	-0.33
C=CCn1c(=O)c(C(=O)Nc2ccccc2)c(O)c2ccccc21	-2.2	0.24
C/C(=N\NC(=O)c1ccc(CSc2nc3ccccc3[nH]2)cc1)c1ccco1	0.1	x
Nc1nnc2ccccc2n1	1.9	-0.1
CCC(=O)Nc1c(CC)cccc1CC	6.5	-0.15
O=C(c1cnn(C(=O)C2COc3ccccc3O2)c1)c1ccccc1O (stereo not given)	2.7	x
CC(=O)N1CCc2cc(C(O)CN(Cc3ccccc3)Cc3ccccc3)ccc21 (stereo not given)	0.9	0.51
Cc1[nH]c(=O)[nH]c(=O)c1S(=O)(=O)N1CCOc2ccccc2C1	1.0	0.31
Cn1nc(SCC(=O)N2c3ccccc3CCc3ccccc32)sc1=S	3.1	x
Oc1nc2c(Cl)c(Cl)c(Cl)cc2o1	1.0	0.44
COc1ccc(S(=O)(=O)N2CCC(NC(=O)NC3CCCC3)CC2)cc1	-0.9	-0.42
O=C(CN1C(=O)C2CCc3[nH]c4ccccc4c3C2C1=O)N1CCCC1 (stereo not given)	0.4	-1
Cc1cc(C(F)(F)F)nn1CC(=O)Nc1ccc2c(c1)OCO2	2.4	-0.15
CC(C)(C)n1nc2c(c1NC(=O)/C=C/c1ccccc1)CSC2	3.5	x
CC(C)(C)OC(=O)N1CCCN(C(=O)Nc2ccccc2)CC1	0.7	-0.052
CC(C)N=Cc1cc2n(c1O)-c1ccccc1C2=O	-0.4	-7.5
FC(F)(F)c1cc(-c2cccnc2)nc2cc(C3CC3)nn12	-0.9	0.92
CC(=O)Oc1cn(C(C)=O)c2ccccc12	-2.3	-0.21
Cc1ccccc1S(=O)(=O)Cc1ccc(C(=O)NCCCN2CCCC(C)C2)o1 (stereo not given)	0.0	-0.069
O=C(O)/C=C\C(=O)NCc1ccc2c(c1)OCO2	2.3	0.27
CCCCN(CC)C(=O)c1sc2ncnc(N3CCN(c4ccc(OC)cc4)CC3)c2c1C	1.6	x
O=C(O)C1C2C=CC(C2)C1C(=O)NCc1ccc2c(c1)OCO2 (stereo not given)	2.1	x
CC(=O)N1CC(C(=O)Nc2cccc3ncccc23)Oc2ccccc21 (stereo not given)	4.6	x
S=c1[nH]nc(-c2ccncc2)n1Cc1ccccc1	-2.6&3.1	0.31
CCn1c(-c2ccccc2)cs/c1=N/NC(=O)c1ccncc1	0.0	-0.91
O=C(Cc1ccc(Cl)cc1)N1CCN(c2ccc(F)cc2)CC1	0.7	x
N#Cc1c(-c2ccccc2)cc(C2CC2)nc1N	-0.7	-0.17
CCOC(=O)c1cc(-c2ccc(F)cc2)n(CC(=O)NCc2cccs2)c1C	-1.0	-0.97
COc1ccc(C(=O)NCCN2CCCC2)cc1OC	-3.0	0.31
CCCOc1ccc(C(C)(O)CN2CCOCC2)cc1 (stereo not given)	3.3	-0.23
CCCC(C)C(=O)NCc1ccccc1 (stereo not given)	-1.9	-0.089
CCOC(=O)c1ccc(NC(=O)CSc2nnc(CNC(=O)c3ccco3)n2-c2ccc(F)cc2)cc1	-0.3	0.075
O=C(Nc1ccc2[nH]c(=O)[nH]c2c1)c1cc(-c2ccco2)nc2ccccc12	3.8	x
O=C(N[C@@H](Cc1ccccc1)C(=O)NCc1cccs1)c1cccs1	0.2	x
O=C(O)c1ccc2c3c(cccc13)C(=O)N(c1ccccc1O)C2=O	-12	2.7
O=S(=O)(NCc1csc2ccc(Cl)cc12)c1cc(S(=O)(=O)c2ccccc2)cs1	-0.9	x
CCc1ccc(NC(=S)NC(=O)/C=C/c2ccco2)cc1	-9.5	0.62
O=C(Cn1c(=O)oc2ccccc21)NC12CC3CC(CC(C3)C1)C2	-0.1	-1.9
Further compounds follow:
SMILES	BasE inh	LANA-nucl inh
COc1ccc2c3c1OC1CC(O)C=C[C@@]31CCN(C)C2 (stereo not given in full)	-2.9	-0.2
CCOC(=O)C1CCN(S(=O)(=O)C(F)(F)c2nc3ccccc3s2)CC1	1.4	x
O=C(Oc1ccc2oc(-c3ccco3)cc(=O)c2c1)C1CCCCC1	-0.7	-2.2
CCOC(=O)c1sc(NC(=O)c2cc3c(C)nn(Cc4ccccc4)c3s2)nc1C	0.0	x
Cc1nnsc1C(=O)Nc1cccnc1	1.1	x
CCOC(=O)N1CCC(NC(=O)c2ccc3nc(/C=C(\O)c4ccc(OC)cc4)c(=O)[nH]c3c2)CC1	1.6	-0.015
CN(C)CC[n+]1ccc(C(=O)c2ccccc2)cc1	-2.4	0.8
CCOC(=O)Cc1n[nH]c(=S)n1C	0.3	x
CCOc1ccc(-n2c(C)cc(/C=N/N(C)C)c2C)cc1	-0.3	x
Fc1ccccc1-c1cn2ccsc2n1	x	0.75
O=C1Nc2ccccc2C(O)(C(=O)NCc2ccccc2)N1c1ccccc1 (stereo not given)	-0.5	0.67
COC(=O)c1sc(N)c(C(=O)OC)c1COC(=O)c1ccc2c(c1)C(=O)N(Cc1ccco1)C2=O	0.2	x
C(=NC1CC1)c1ccc(-c2ccccc2)cc1	2.5	x
O=C(NCCO)c1ccccc1-c1ccccc1	0.1	-1.1
O=c1[nH]c(-c2cccc(Cl)c2)nc2ccc(N3CCCC3)cc12	x	-0.21
COc1cccc(C(=O)Nc2ccc(-c3nc4ncccc4o3)cc2)c1	3.2	-0.38
CC1CCCC(C)N1CC(O)Cn1c2ccccc2c2ccccc21 (stereo not given)	-1.2	0.71
Cc1noc(C)c1C(=O)N=c1sc2ccccc2n1C	-1.2	x
O=C(NCc1ccccc1CN1CCCC1)c1csc(-c2cccs2)n1	-4.5	x
COC(=O)c1sc(NC(=O)c2csc3c2CCCC3)c(C#N)c1C	2.0	-1.3
C=CCN(C(=O)CCc1c(C)nn(-c2ccccc2)c1C)c1nc2c(s1)CCCC2	0.1	x
N#Cc1ccc(Cl)cc1NC(=O)COC(=O)c1cc(-c2ccco2)nc2ccccc12	-0.2	x
CCC1Oc2ccc(C)cc2N(CC(=O)NC(C)C)C1=O (stereo not given)	0.1	-0.4
Cc1ccc(OCC(O)CN2CCC(C)CC2)c(C)c1 (stereo not given)	0.8	x
CCCC1C2C(=O)N(c3ccccc3)C(=O)C2ON1c1ccc(Cl)c(Cl)c1 (stereo not given)	1.4	x
Cc1cc(-c2ccc(C(C)C)c(S(=O)(=O)NC(C)(C)C)c2)on1	0.0	x
CCc1nn(C(C)C(=O)NCCc2ccc(OC)c(OC)c2)c(=O)c2cc3occc3n12 (stereo not given)	-0.8	-1.2
CCCCn1c(C)cc(/C=C(\C#N)C(=O)O)c1C	2.3	x
O=C(COc1nc2ccccc2s1)N1N=CCC1c1ccccc1 (stereo not given)	-0.4	0.26
CC(C(=O)Nc1ccc(Cl)cn1)N(C)Cc1c(F)cccc1Cl (stereo not given)	2.7	x
Cc1c(C)n(CC(O)CN2CCN(CC(O)Cn3c(C)c(C)c4ccccc43)CC2)c2ccccc12 (stereo not given)	0.4	-0.39
COc1ccccc1OCC(=O)NN	-0.1	1.7
Cc1cc(F)c(F)c(C(=O)N2CCCCCC2)c1Cl	-1.5	2.8
O=C(Cc1ccccc1)Nc1ccc(-c2cn3ccsc3n2)cc1	0.1	x
CCOc1ccc(C2C3=C(CCCC3=O)NC3=C2C(=O)CCC3)cc1	0.8	x
O=C(CCc1ccccc1)Nc1ccccc1N1CCOCC1	-0.5	x
CCN(CC)C(=O)N1CCN(c2ccccc2)CC1	2.3	-0.61
CC1CCCCN1S(=O)(=O)c1cccs1 (stereo not given)	-4.9	2.2
NCC(O)CN(c1ccccc1)c1ccccc1 (stereo not given)	-0.8	-0.052
Cc1ccc(C2=C/C(=C\c3cccnc3)C(=O)O2)cc1	0.5	0.57
CC(=O)n1c(SCC(=O)NC2=NN=C(c3ccc(C)cc3)CS2)nc2ccccc21	2.3	-1.1
Cc1csc(Cc2nc3ccccc3n2C)n1	-2.3	x
CCCS(=O)(=O)N1N=C(c2ccc(C)cc2)CC1c1ccco1 (stereo not given)	-32	-1.2
CC1=C/C(=C/N(C)c2ccccc2)C(=O)S1	1.0	x
O=C(NC1CCCC1)c1ccccc1C(F)(F)F	0.2	x
CCN(CC)C(=O)N1CCN(C(=O)N(CC)CC)CC1	0.6	0.7
COc1ccc(N=C2SCC(=O)N2C)cc1	-2.1	0.35
N#C/C(=C\c1cccs1)c1csc2ccc(Cl)cc12	-0.8	x
CCCCS(=O)(=O)Nc1nccs1	0.5	x
CC(C#N)OC(=O)c1ccccc1Sc1ccccc1C#N (stereo not given)	1.7	x
CCOC(=O)C1CCN(C(c2cccnc2)c2nnnn2Cc2ccccc2)CC1 (stereo not given)	4.1	-0.61
O=C1CC(c2ccc(S(=O)(=O)NC3CCCCC3)cc2)CN1 (stereo not given)	-0.4	-0.73
CC1=C(C)CC2(SC1)C(=O)N(c1ccccc1)N=C2N (stereo not given)	-0.1	x
C=CCN(CC(=O)N1CCCc2ccccc21)S(=O)(=O)c1cccs1	-0.1	x
O=[N+]1C2=C(CCCC2)N([O-])C12CCCC2	-0.1	0.38
O=C1CC(=O)CC(c2ccc(F)cc2)C1	x	-1.2
Cc1ccc(/C=N/n2cnnc2)cc1	-0.5	0.66
CCOC(=O)c1cc(C(=O)NCc2ccccc2)c(=O)[nH]c1C	4.3	0.46
NC(=O)C(F)(F)C(F)(F)C(F)(F)C(F)F	2.6	x
COC(=O)C(Cc1ccc(O)cc1)NC(=O)c1ccccc1OC (stereo not given)	-5.4	x
CCN=C(Nc1ccc2c(c1)OCO2)SC1CC(=O)N(c2ccc(C(=O)OC)cc2)C1=O (stereo not given)	1.9	0.28
